# TRPV1 PAM: enhances activation of the human vanilloid receptor TRPV1; TRPV1-expressing cells, Fluo-8 calcium influx, capsaicin EC20 potentiation; host cell line not named in the record; control for the full effect not named in the record; potentiation, % at 8.33 µM; hit rate 0.02% among 320,000; AID 540277; active means potentiation above 80%; inconclusive means 30% to 80%; inactive means below 30%; further: 0% is about no effect
#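 TRPV1-expressing cells were cultured overnight at 35.5C and loaded with Fluo-8 calcium dye for 40 to 90 min at room temperature. After a 10 s baseline, compound was added and calcium influx was read kinetically for 3 min (ex 480/em 520 nm).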
# D2 potentiator: positive allosteric modulators of human D2 dopamine receptor | P14416 | DiscoveRx D2 beta-arrestin cells, luminescence, 90 min; 100% = 57 uM dopamine signal | potentiation, % (concentration not given with the values) | hit rate 0.23% among 360,000 | AID 624464; active = potentiation of 50% or more; inconclusive = 30% to 50%; inactive = 30% or less;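 further: compound concentration not given in the record; tested on top of an EC20 dose of dopamine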
#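 D2 cells co-treated with compound plus 50 nM dopamine (EC20) for 90 min at 37 deg C to detect potentiation. Beta-arrestin recruitment was read as enzyme-fragment luminescence after 1 h at ambient temperature. Full response was set by 57 uM dopamine.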
# TRPML1 blocker: human mucolipin-1 channel inhibition. Q9GZU1. TRPML1-inducible cells, Ca2+ dye fluorescence, FDSS; stronger effect = lower value; inhibition of EC80 agonist-evoked calcium signal. activity change, negative = inhibition, % (concentration not given with the values). hit rate 0.02% among 390,000; in the data active means activity change below about -50%; inconclusive means about -30% to -50%; inactive means above about -30%;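 further: stimulus is agonist 54-4 at its EC80 concentration; on the % scale 0 is the no-effect control and ±100 the full control effect; compound concentration not given in the record; the text of the record puts the active cut at -80%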
#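 Calcium fluorescence in TRPML1-DL cells induced overnight with Tet: a 110 s read after compound pin addition, then a 110 s antagonist read after challenge with 54-4 at 4 uM final (EC80).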
# Six1-Eya2 inh: inhibitors of human Six1/Eya2 interaction; Q15475+O00167; AlphaScreen GST-Six1/His-Eya2 binding, biochemical; stronger effect = lower value; control for the full effect not named in the record; activity change, % (test concentration not listed); hit rate 0.56% among 360,000; AID 651725; in the data active = activity change below about -65%; inconclusive = about -30% to -65%; inactive = above about -30%; further: on the % scale 0 is the no-effect control and ±100 the full control effect; compound concentration not given in the record
# Target sequence (O00167 whole entry, looked up): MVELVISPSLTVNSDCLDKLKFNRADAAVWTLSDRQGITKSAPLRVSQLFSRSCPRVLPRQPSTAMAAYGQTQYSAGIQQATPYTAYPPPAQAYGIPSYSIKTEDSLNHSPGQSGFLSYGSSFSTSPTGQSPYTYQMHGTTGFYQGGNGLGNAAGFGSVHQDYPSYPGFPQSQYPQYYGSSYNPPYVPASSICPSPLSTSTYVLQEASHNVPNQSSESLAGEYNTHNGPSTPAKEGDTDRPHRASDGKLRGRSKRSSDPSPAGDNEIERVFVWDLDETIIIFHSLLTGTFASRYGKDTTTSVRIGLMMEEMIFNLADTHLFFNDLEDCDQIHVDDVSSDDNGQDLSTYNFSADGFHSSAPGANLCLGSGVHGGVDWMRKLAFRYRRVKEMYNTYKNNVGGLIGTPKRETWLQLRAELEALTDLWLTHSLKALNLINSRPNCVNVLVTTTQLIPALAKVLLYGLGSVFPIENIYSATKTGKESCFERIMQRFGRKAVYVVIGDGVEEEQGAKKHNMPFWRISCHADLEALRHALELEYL
# Target sequence (Q15475 whole entry, looked up): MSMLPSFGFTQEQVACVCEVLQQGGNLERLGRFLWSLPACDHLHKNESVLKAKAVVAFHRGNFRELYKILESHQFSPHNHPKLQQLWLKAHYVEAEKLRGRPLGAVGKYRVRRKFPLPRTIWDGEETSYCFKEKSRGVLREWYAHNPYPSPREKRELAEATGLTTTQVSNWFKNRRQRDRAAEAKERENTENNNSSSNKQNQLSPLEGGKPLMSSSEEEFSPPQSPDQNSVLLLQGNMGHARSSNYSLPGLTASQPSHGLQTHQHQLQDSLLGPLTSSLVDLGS
#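 Compounds are tested against tagged Six1 and Eya2 proteins bridged by glutathione donor and nickel acceptor beads; after a one-hour incubation at 37 °C without light, AlphaScreen emission is recorded.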
# TRPML1 ag: activates the human TRPML1 channel. Q9GZU1. TRPML1-expressing cells, Ca2+ dye fluorescence, FDSS; host cell line not named in the record; reference of the full effect not given here. activation, % (test concentration not listed). hit rate 0.12% among 410,000. AID 624414; in the data active = activation above about 50%; inconclusive = about 30% to 50%; inactive = below about 30%; further: 0% is about no effect; the text of the record puts the active cut at 80%
#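 Agonist activity was taken from a 110 s kinetic Ca2+ dye read on the FDSS after pinning compounds onto TRPML1-DL cells. The cells were seeded at 1,500/well with Tet inducer, incubated about 16 h, then dye-loaded at room temperature.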
# CtBP-E1A inh: inhibitors of CtBP/E1A interaction; AID 651724; AlphaScreen GST-E1A/His-CtBP binding, 1536-well; stronger effect = lower value; control for the full effect not named in the record; activity change, % (test concentration not listed); hit rate 0.49% among 340,000; in the data active means activity change below about -65%; inconclusive means about -30% to -65%; inactive means above about -30%; further: on the % scale 0 is the no-effect control and ±100 the full control effect; compound concentration not given in the record
#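 Steps: dispense buffer (Tris pH 8.0, NaCl 300 mM, TCEP 1 mM, BSA, Tween 20); add 5X protein mix (GST-E1A, His-CtBP, 125 nM each); pin 23 nL compound; 2 h at 37 °C, dark; add 5X beads (50 ug/mL); 1 h; read.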
# Numbers without * were called inactive; ? = inconclusive; · = no result given; & = joins results of further samples. Compounds as they come; 0.95% or so of the library scored in one or more.
# Every second line gives: TRPV1 PAM, D2 potentiator, TRPML1 blocker, Six1-Eya2 inh, TRPML1 ag, CtBP-E1A inh
1) COc1cccc(-n2c(CN3CCN(c4ccccc4)CC3)nc3ccc([N+](=O)[O-])cc3c2=O)c1
    -2, -8, -2, -20, -0.1, -14
2) Cc1cc(C)nc(CCNC(=O)c2cc(COc3ccc(F)cc3Cl)on2)n1
    7, -3, 4, 5, 1.0, 2
3) Cc1ccccc1Nc1nc(N)nc(COC(=O)CCS(=O)(=O)c2ccc(Cl)cc2)n1
    3, -2, 5, 1, 0.8, -14
4) O=C(O)c1ccc(-n2c(/C=C/c3cccc([N+](=O)[O-])c3)nc3ccccc3c2=O)cc1
    3, -10, -12, 5, 1.1, ·
5) Cc1ccc2c(c1)/C(=N/O)CCS2
    -4, -16, -3, -4, 0.3, 1
6) COc1cc(C2C(C#N)=C(C)NC(C)=C2C#N)cc(OC)c1OC
    4, 6, -1, 2, -0.3, 7
7) Cc1ccc(NC(=O)CN2C(=O)CCSc3ccc(S(=O)(=O)N4CCCC4)cc32)cc1C
    -7, -13, 14&6, -3, -1.4&-0.6, 1
8) COc1ccccc1N(Cc1cc(=O)[nH]c2ccccc12)C(=O)c1ccc([N+](=O)[O-])cc1
    -8, -1, 15, -1, -0.7, 6
9) COc1ccccc1C(=O)NNC(=O)C1CC=CCC1 (configuration not stated)
    15, 3, -10, 6, 0.5, -17
10) COc1cc(/C=N/S(=O)(=O)CCc2ccccc2)cc(OC)c1O
    2, 3, -12, 9, 0.3, -22
11) CCC(C)[C@H]1CNCCN1CCC12CC3CC(CC(C3)C1)C2 (some centres not stated)
    2, -9, 67, -18, -0.2, -14
12) CSCC(=O)NC1CCCc2c1cnn2-c1cc(F)cc(F)c1 (configuration not stated)
    10, -1, -7, 1, 0.1, 6
13) CCCC(=O)Nc1c(-c2ccc(C)cc2)c(=O)c2ccccc2n1C
    -8, 3, -17, 5, 1.3, 9
14) CC(C)(C)n1nc2c(c1NC(=O)c1cccc(Cl)c1)CS(=O)(=O)C2
    ?, -6, -7, 2, -0.2, -14
15) COc1ccc(C(=O)NNS(=O)(=O)c2ccc(C)cc2)cc1
    -6, -19, 45, 3, 0.5, 6
16) CCOC(=O)N1CCC(NC(=O)c2cc(C(=O)Nc3cccc(C(F)(F)F)c3)ccc2CO)CC1
    ?, -6, 7, 2, 0.9, ·
17) O=S(=O)(c1ccc(Br)cc1)N1CCCN(Cc2cccc(F)c2)CC1
    -8, -15, 53, -4, 2.3, -20
18) C=CCC1(CC=C)CCCN1Cc1nc(COc2ccccc2)no1
    -1, -5, 3, 8, -0.4, 25
19) CC(NCC(c1ccco1)N1CCCCC1)C(=O)NC1CCCC1 (configuration not stated)
    -8, -8, 4, 0, -0.3, 0
20) Cc1ccc(/C(O)=C2/C(=O)C(=O)N(c3ccccn3)C2c2cccc([N+](=O)[O-])c2)cc1 (configuration not stated)
    ?, -5, 21, 0, 2.4, 2
21) Cc1nn(C)c(C)c1CNC(=O)Nc1ccc2c(c1)OCO2
    7, -4, 1, 1, 0.2, -5
22) COc1ccc2nc(CC(C)(C)CC(=O)O)c[n+]([O-])c2c1
    2, -18, 3, -1, -0.6, -1
23) O=C(c1ccc(Cl)c(F)c1F)N1CCCC1
    -3, 10, 23, 13, 1.7, -4
24) COc1cccc(C(=O)Nc2ccc3c(cc2=O)[C@@H](NC(C)=O)CCc2cc(OC)c(OC)c(OC)c2-3)c1
    -3, 15, 15, -12, 2.4, -21
25) O=C(O)CCCNC(=O)CC1S/C(=N/N=C/c2ccccc2O)NC1=O (configuration not stated)
    1, -4, 7, -7, -0.2, -23
26) CCC(C)NC(=O)Cc1c(C)c2cc3c(cc2oc1=O)OC(C)(C)CC3 (configuration not stated)
    -30, -3, ?, 5, 0.5, 10
27) O=C(NC1CC1)c1cccc(-c2cncc3nccn23)c1
    ·, -13, 49, -14, -0.9, ?
28) CC1CCCC(C)N1C(=O)C1CC(c2ccc(F)cc2)=NO1 (configuration not stated)
    ·, -6, -1, 2, 0.4, -2
29) Cc1nc2c(-c3ccc(F)cc3)c(C)nn2c(C)c1CCC(=O)N1CCC(Cc2ccccc2)CC1
    ·, -5, 12, 16, -0.4, -1
30) CCCCn1c(=O)[nH]c(=O)c2c1nc(-c1ccc(OCCC)c(OCC)c1)n2C
    -7, 1, 8, 7, 0.6, 4
31) Cc1ccc(C)n1CCN1CCN(C(=O)c2ccc(Cl)cc2)CC1
    1, -34, -8, 19, 0.6, -22
32) CN(c1ccccc1)S(=O)(=O)c1ccc(C(=O)Nc2nnc(C3CC3)s2)cc1
    ?, -2, -6, 0, 0.9, 2
33) O=C1C=C(c2cccc(OCc3ccccc3)c2)C[C@@H](c2ccc3c(c2)OCO3)C1
    12, -13, -7, -19, 1.1, -28
34) CCN(CC)c1ccc(NC(=O)c2ccco2)cc1
    -20, -3, -5, -5, -0.5, -5
35) O=C(NCc1ccccc1)c1cccc(S(=O)(=O)N2CCOCC2)c1
    -4, -7, -3, 2, 0.1, 6
36) CC(=O)N/N=C(/c1ccccc1)C(O)c1ccccc1 (configuration not stated)
    -3, 16, ·, -1, ·, ·
37) O=C(/C=C/c1ccccc1)N1CCC(Cc2ccccc2)CC1
    -18, -10, -1, -3, 2.1, -1
38) CCOc1ccc(NC(=O)c2cn(CC(C)C)c(=O)c3c2c2ccccc2n3C)cc1
    -1, -5, 17, 1, 1.4, 4
39) Cc1ccc(S(=O)(=O)c2nc(S(C)(=O)=O)sc2N2CCC(C(N)=O)CC2)cc1
    4, -3, 10, 2, -0.3, 1
40) CN1CCc2c(sc3c2c(=O)n(-c2ccccc2)c2nncn32)C1
    -3, -5, -8, -3, -0.3, -4

41: N#C/C(=C(/O)c1ccco1)c1nc2ccccc2s1
42: Cc1cccc(C(=O)N/N=C/C(C)Cc2ccc3c(c2)OCO3)c1 (configuration not stated)
43: Cc1cccc(C(=O)OCC(=O)NC2CC2)c1O
44: COc1ccc(-c2c(-c3ccccc3OC)oc3ccccc23)cc1F
45: COc1ccc(N2CCN(C(=O)c3ccccc3N(C)S(=O)(=O)c3ccc(C)cc3)CC2)cc1
46: COc1ccccc1OCCNC(=O)c1ccc(C(C)(C)C)cc1
47: CC(=O)Nc1ccc(C(=O)CSc2nnnn2C2CCCC2)cc1
48: O=C(CCCc1ccccc1)Nc1cccnc1

entry no.	41	42	43	44	45	46	47	48
TRPV1 PAM	-9	7	·	-4	-19	·	22	-13
D2 potentiator	-11&-14	-5	-8	-3	-12	-12	-8	-13
TRPML1 blocker	-1&-12	8	7	54	1	-1	-18	-7
Six1-Eya2 inh	-6&0	-9	-4	3	-24	4	9	-6
TRPML1 ag	3.3&-0.5	1.0	-0.2	1.6	2.9	1.0	-0.2	-0.7
CtBP-E1A inh	-15&-2	1	8	17	7	10	·	-2

49: CC(C)(Oc1ccc(Cl)cc1)C(=O)N/N=C/c1cn[nH]c1-c1ccccc1
50: COc1cccc(CNC(=O)C2CCCN(c3nn4c(=O)cc(C)nc4s3)C2)c1 (configuration not stated)
51: COc1cc(-c2cc(NC(C)=O)c3ncc(-c4ccc(C(C)=O)cc4)n3c2)cc(OC)c1OC
52: COc1cc2c(C)nc(C)c(C#N)c2cc1OC
53: COc1ccc(N2C(=O)NC3CC2(C)Oc2ccc(Br)cc23)cc1OC (configuration not stated)
54: COc1ccc(CNC(=O)COC(=O)CCc2nc3ccccc3c(=O)[nH]2)cc1
55: CCC(=O)c1cn(CC(=O)Nc2ccccc2Cl)c2ccccc12
56: COC(=O)c1cc(Br)c(=O)n(CC(C)C)c1

entry no.	49	50	51	52	53	54	55	56
TRPV1 PAM	3	-12	·	-4	-3	-2	?	3
D2 potentiator	6	7	7	-3	-2	-3	-2	8
TRPML1 blocker	27	-12	·	11	11	-5	-9	50
Six1-Eya2 inh	0	0	-3	-5	0	-9	5	11
TRPML1 ag	1.8	0.7	-0.9	-0.4	-0.1	-0.9	0.9	1.7
CtBP-E1A inh	-3	-8	-1	-4	6	0	8	-7

57: Cc1n[nH]c(C)c1N=Nc1cc(Cl)ccc1Cl
58: CC1CCC(C(C)C)C(OC(=O)CSc2nc(N)cc(=O)[nH]2)C1 (configuration not stated)
59: COc1ccc(CN2C(=O)c3cccnc3C2=O)cc1S(=O)(=O)N1CCCC(C)C1 (configuration not stated)
60: C#CCOCCOCCOCCNc1nc(N2CCN(C(=O)[C@H](CCCCN)n3cc([C@@H](N)CC(C)C)nn3)CC2)nc(N2CCN(C(=O)[C@H](Cc3ccc(O)cc3)n3cc([C@@H](N)CC(C)C)nn3)CC2)n1
61: CCOc1ccc(NS(=O)(=O)c2ccc(C(=O)NCC3CCCO3)cc2)cc1 (configuration not stated)

entry no.	57	58	59	60	61
TRPV1 PAM	·	-9	-37	-13	·
D2 potentiator	-4	-9	0	-11	8
TRPML1 blocker	23	-10	-4	11	-1
Six1-Eya2 inh	-23	-1	-1	-4	-2
TRPML1 ag	1.5	3.5	0.1	1.0	3.9
CtBP-E1A inh	-9	-1	·	-17	-1

# Part of the list above in order of formula weight, falling:
60: C#CCOCCOCCOCCNc1nc(N2CCN(C(=O)[C@H](CCCCN)n3cc([C@@H](N)CC(C)C)nn3)CC2)nc(N2CCN(C(=O)[C@H](Cc3ccc(O)cc3)n3cc([C@@H](N)CC(C)C)nn3)CC2)n1
51: COc1cc(-c2cc(NC(C)=O)c3ncc(-c4ccc(C(C)=O)cc4)n3c2)cc(OC)c1OC
59: COc1ccc(CN2C(=O)c3cccnc3C2=O)cc1S(=O)(=O)N1CCCC(C)C1 (configuration not stated)
53: COc1ccc(N2C(=O)NC3CC2(C)Oc2ccc(Br)cc23)cc1OC (configuration not stated)
50: COc1cccc(CNC(=O)C2CCCN(c3nn4c(=O)cc(C)nc4s3)C2)c1 (configuration not stated)
61: CCOc1ccc(NS(=O)(=O)c2ccc(C(=O)NCC3CCCO3)cc2)cc1 (configuration not stated)
54: COc1ccc(CNC(=O)COC(=O)CCc2nc3ccccc3c(=O)[nH]2)cc1
49: CC(C)(Oc1ccc(Cl)cc1)C(=O)N/N=C/c1cn[nH]c1-c1ccccc1
47: CC(=O)Nc1ccc(C(=O)CSc2nnnn2C2CCCC2)cc1
55: CCC(=O)c1cn(CC(=O)Nc2ccccc2Cl)c2ccccc12

entry no.	60	51	59	53	50	61	54	49	47	55
TRPV1 PAM	-13	·	-37	-3	-12	·	-2	3	22	?
D2 potentiator	-11	7	0	-2	7	8	-3	6	-8	-2
TRPML1 blocker	11	·	-4	11	-12	-1	-5	27	-18	-9
Six1-Eya2 inh	-4	-3	-1	0	0	-2	-9	0	9	5
TRPML1 ag	1.0	-0.9	0.1	-0.1	0.7	3.9	-0.9	1.8	-0.2	0.9
CtBP-E1A inh	-17	-1	·	6	-8	-1	0	-3	·	8

58: CC1CCC(C(C)C)C(OC(=O)CSc2nc(N)cc(=O)[nH]2)C1 (configuration not stated)
46: COc1ccccc1OCCNC(=O)c1ccc(C(C)(C)C)cc1
56: COC(=O)c1cc(Br)c(=O)n(CC(C)C)c1
57: Cc1n[nH]c(C)c1N=Nc1cc(Cl)ccc1Cl

entry no.	58	46	56	57
TRPV1 PAM	-9	·	3	·
D2 potentiator	-9	-12	8	-4
TRPML1 blocker	-10	-1	50	23
Six1-Eya2 inh	-1	4	11	-23
TRPML1 ag	3.5	1.0	1.7	1.5
CtBP-E1A inh	-1	10	-7	-9
